# EPAC1 agonist = Validation qHTS for agonist of cAMP-regulated guanine nucleotide exchange factor 3 (EPAC1); Rap guanine nucleotide exchange factor 3 (Homo sapiens), O95398; EPAC1 Rap1b BODIPY-GDP exchange, fluorescence; Potency, µM, without a hit: max response, positive = active, most hits filed as activators; 16,000 compounds, 1% hits; AID 1645883, 2021; active = well fitted activation curve with a large enough effect; inconclusive = small, poorly fitted or top-dose-only effect; inactive = no such curve, though single readings can be large or run the other way;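 note: nearly all actives have a fitted effect of over 70% in size; series mostly up to about 76 or 150 µM; scaled to a cAMP control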
# Target sequence (O95398 whole entry, looked up): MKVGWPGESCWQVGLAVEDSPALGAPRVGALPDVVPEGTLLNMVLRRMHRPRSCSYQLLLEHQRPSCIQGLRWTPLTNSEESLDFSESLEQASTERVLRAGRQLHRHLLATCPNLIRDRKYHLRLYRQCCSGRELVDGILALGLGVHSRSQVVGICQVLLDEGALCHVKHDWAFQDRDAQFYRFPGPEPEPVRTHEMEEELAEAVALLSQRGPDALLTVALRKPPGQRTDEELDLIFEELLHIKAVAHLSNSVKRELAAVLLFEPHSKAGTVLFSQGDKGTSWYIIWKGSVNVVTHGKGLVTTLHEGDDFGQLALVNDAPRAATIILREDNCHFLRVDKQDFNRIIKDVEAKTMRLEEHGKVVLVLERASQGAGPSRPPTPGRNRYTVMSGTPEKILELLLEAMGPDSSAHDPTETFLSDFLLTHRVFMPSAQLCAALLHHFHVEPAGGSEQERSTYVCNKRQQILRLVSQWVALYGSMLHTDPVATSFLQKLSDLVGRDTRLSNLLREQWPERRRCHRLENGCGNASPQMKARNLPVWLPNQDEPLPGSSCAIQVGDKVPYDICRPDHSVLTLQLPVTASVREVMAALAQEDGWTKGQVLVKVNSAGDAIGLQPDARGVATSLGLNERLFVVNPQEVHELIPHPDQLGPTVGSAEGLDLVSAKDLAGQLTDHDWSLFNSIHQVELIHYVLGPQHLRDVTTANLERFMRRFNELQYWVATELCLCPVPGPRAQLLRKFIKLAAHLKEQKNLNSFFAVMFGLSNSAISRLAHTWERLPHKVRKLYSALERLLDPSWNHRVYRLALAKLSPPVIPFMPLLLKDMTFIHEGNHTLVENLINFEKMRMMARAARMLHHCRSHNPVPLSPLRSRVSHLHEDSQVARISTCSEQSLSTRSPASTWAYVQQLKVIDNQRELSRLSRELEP
# * = called active by the depositor; ? = inconclusive; & = joins results of further samples; [ ] = another dose, or the depositor's remark. % is set by controls: 0 for no effect and ±100 for the full control effect; potency is the fitted concentration of half-maximal effect. Not all compounds are listed. The share of hits here may be higher or lower than overall.
SMILES,EPAC1 agonist
CN(C)c1ccc(-c2nccc(NCc3cccs3)n2)cc1,?
CS(=O)(=O)Nc1cccc(-c2ccc3ncnc(NC4CC4)c3c2)c1,-44%
CCN(CC)CCOc1ccc(-c2nc3cc(Cl)ccc3s2)cc1,5%
COc1cccc(Nc2ncc3nc(C)c(=O)n(C4CC4)c3n2)c1,-34%[inhibitor]
Cc1cc(C(=O)NNCc2ccccc2)no1,1%
Cc1nc(N=Nc2ccc(S(=O)(=O)O)cc2S(=O)(=O)O)c(COP(=O)(O)O)c(C=O)c1O,-3%&5%&-12%
CC(C)C[C@@H](CO)N1CCN(Cc2ccc([N+](=O)[O-])cc2)CCC1=O,3%
CC(=O)NCCNc1nc(-c2cccnc2)nc2ccccc12,-34%[inhibitor]
COc1ccccc1CNc1ncnc2sc(C(=O)N3CCN(C)CC3)c(C)c12,3%
CC[C@@H]1/C=C(\C)C[C@H](C)C[C@H](OC)[C@H]2O[C@@](O)(C(=O)C(=O)N3CCCC[C@H]3C(=O)O[C@H](/C(C)=C/[C@@H]3CC[C@@H](Cl)[C@H](OC)C3)[C@H](C)[C@@H](O)CC1=O)[C@H](C)C[C@@H]2OC,9%
COc1ccc2[nH]cc(CCNc3ncncc3-c3ccccc3C(F)(F)F)c2c1,9%
COc1cccc(O)c1O,-5%
CCCCCCCCCCCCCCCCCCN(CCCCCCCCCCCCCCCCCC)c1ccc(/C=C/c2ccnc3ccccc23)cc1,-17%
N=C(N)c1ccc(OCCCOc2ccc(C(=N)N)cc2)cc1,3%
CCCC(=O)Nc1ncnc2c1ncn2[C@@H]1O[C@@H]2COP(=O)(O)O[C@H]2[C@H]1OC(=O)CCC,?
CC(C)CN1CC[C@@]2(CCCN(C(=O)c3csnn3)C2)C1,-67%[inhibitor]
O=P(O)(O)OC(Cn1cncn1)(Cn1cncn1)c1ccc(F)cc1F,25%
CO[C@@]1(NC(=O)C2SC(=C(C(N)=O)C(=O)O)S2)C(=O)N2C(C(=O)O)=C(CSc3nnnn3C)CS[C@@H]21 (stereo not given in full),2%
CC1(C)N=C(N)N=C(N)N1c1ccc(Cl)cc1,-5%
Cc1ncc2c(c1CNC(=O)c1ccc3c(c1)OCO3)CCN(C(=O)C1Cc3ccccc3O1)C2 (stereo not given),-7%

# Looked up by structure from the list above (two):
SMILES,EPAC1 agonist
COc1ccccc1CNc1ncnc2sc(C(=O)N3CCN(C)CC3)c(C)c12,3%
CC1(C)N=C(N)N=C(N)N1c1ccc(Cl)cc1,-5%

# Additional structures
SMILES,EPAC1 agonist
Cc1noc(C)c1C(=O)N1CCC2(CCCN(Cc3nccs3)C2)CC1,-16%
NNc1nnc(Cc2ccncc2)c2ccccc12,18%
COCCn1c(=O)c(CCc2ccccc2)nc2cnc(N(C)C)nc21,-23%
COc1cc(/C=C(\C#N)C(=O)c2ccc(O)c(O)c2)cc(I)c1O,-6%
Cc1[nH]c(C)c(Cl)c(=O)c1Cl,7%
CCCCCCCCCCCCCCC[C@@H](O)[C@H](CO)NC(=O)CCCCCCC,-10%
CC(C)C[C@H](NC(=O)[C@H](Cc1ccccc1)NC(=O)c1cnccn1)B(O)O,-13%&-5%
COCCNC(=O)COc1ccc(OCCNC[C@@H](O)COc2ccccc2)cc1,12%
FC(F)(F)c1ccccc1-c1cncnc1NCc1cccs1,-22%
COc1cc(=O)n2c(c1C(=O)NCc1ccc3c(c1)OCO3)CCN(C(=O)c1ccc(C)cc1)CC2,-19%
O=C(c1ccncc1)N1CCC2(CCCN(Cc3nccs3)C2)CC1,-35%[inhibitor]
Nc1ccc(/C=C/c2ccnc3ccccc23)c(N)c1,22%
CC[C@](N)(CCC(=O)O)C(=O)O,-14%&-5%
C/C=C(\C)C(=O)O[C@H]1CC(C)=C2C(=O)C=C(C)C2[C@@H]2OC(=O)[C@@](C)(OC(=O)C=C(C)C)C21 (stereo not given in full),-36%[inhibitor]
CNC(=O)[C@H]1O[C@@H](n2cnc3c(NCc4cccc(I)c4)ncnc32)[C@H](O)[C@@H]1O,3%&-13%&-6%
O=C1C2C=CC=CC2=NC(=S)N1CCN1CCC(=C(c2ccc(F)cc2)c2ccc(F)cc2)CC1 (stereo not given),4%
Cc1ccccc1C1(CC(=O)N2CC3(C)CC2CC(C)(C)C3)CC(=O)N(Cc2cccnc2)C1=O (stereo not given),-4%
O=C(O)CCC/C=C\C[C@@H]1[C@@H](/C=C/[C@@H](O)COc2cccc(Cl)c2)[C@H](O)C[C@@H]1O,-12%&-3%
N#Cc1cc2[nH]c(=O)c(=O)[nH]c2cc1[N+](=O)[O-],1%
CS(=O)(=O)Nc1cccc(-c2cncnc2Nc2ccccc2)c1,-9%
O=C(OOC(=O)c1ccccc1)c1ccccc1,-26%
CCOC(=O)[C@H](CCc1ccccc1)N[C@@H](C)C(=O)N1Cc2cc(OC)c(OC)cc2C[C@H]1C(=O)O,-19%
CN(C)c1ccc(/C=C/c2cc(Cl)nc3ccccc23)cc1,-19%
O=C(c1cc(C(F)(F)F)cc(C(F)(F)F)c1)N1CCC2(CC1)CCN(c1ccccc1)CC2,-95%[inhibitor]
O=C(O)CN(CCN(CC(=O)O)CC(=O)O)CCN(CC(=O)O)CC(=O)O,-8%&-4%
CCOC(=O)C1CCCN(C(=O)c2cnn(-c3ncc4c(n3)-c3ccccc3CC4)c2C)C1 (stereo not given),-7%
CS(C)(=O)=O,6%
CS(=O)(=O)Nc1cccc(-c2cc(NCc3cccs3)ncn2)c1,21%
O=C(Oc1ccccc1)N1CCC2(CCCN(c3ccc(-c4ccccc4)cc3)C2)CC1,?
O=C(NCCc1nnc2n1CCN(Cc1cc3ccccc3o1)CC2)c1ccoc1,-28%
Nc1ncn([C@H]2C[C@H](O)[C@@H](CO)O2)c(=O)n1,-6%
CC(=O)CC(c1ccc([N+](=O)[O-])cc1)c1c(O)c2ccccc2oc1=O (stereo not given),-10%
N[C@H](C(=O)O)[C@H]1C[C@H]1C(=O)O,-20%
CO/N=C(\C(=O)N[C@@H]1C(=O)N2C(C(=O)O)=C(C[N+]3(C)CCCC3)CS[C@H]12)c1csc(N)n1,-1%
C=CCCCCCCCCCCCc1ccco1,-122%[inhibitor]
FC(F)(F)c1cnc(-c2cc3c(c(OCC4CCCO4)c2)OCCN(Cc2cccn2-c2nccs2)C3)c(Cl)c1 (stereo not given),-19%
NC(C(=O)O)C(O)C(=O)O (stereo not given),-27%
Cc1nc2cnc(N3CCN(C)CC3)nc2n(C[C@H]2CCCO2)c1=O,1%
CC(=O)c1ccc(F)c(-c2cc(C)cc3c2OC(CNC(=O)c2cnc4ccccn4c2=O)C3)c1 (stereo not given),11%
COc1ccc2c(c1)-c1nc(-n3ncc(C(=O)NC[C@@H]4CCCN5CCCC[C@H]45)c3C)ncc1CC2,5%

# Some of these compounds in order of the EPAC1 agonist value, smallest number first:
SMILES,EPAC1 agonist
COCCn1c(=O)c(CCc2ccccc2)nc2cnc(N(C)C)nc21,-23%
N[C@H](C(=O)O)[C@H]1C[C@H]1C(=O)O,-20%
N=C(N)c1ccc(OCCCOc2ccc(C(=N)N)cc2)cc1,3%
CCN(CC)CCOc1ccc(-c2nc3cc(Cl)ccc3s2)cc1,5%
COCCNC(=O)COc1ccc(OCCNC[C@@H](O)COc2ccccc2)cc1,12%

# Following part:
SMILES,EPAC1 agonist
Cc1c(C(=O)N(C)Cc2nccs2)sc2ncnc(NCC3CCCO3)c12 (stereo not given),-6%
O=C(Nc1ccc(Cl)cc1)Nc1ccc(Cl)c(Cl)c1,-4%
CCC[C@H]1COCCS(=O)(=O)N1Cc1ccccc1,-6%
C[C@H](CCC(=O)O)C1CC[C@H]2C3CC[C@@H]4C[C@H](O)CC[C@]4(C)C3C[C@H](O)[C@]12C (stereo not given in full),-3%
CC1CCCCN1CCCOC(=O)c1ccccc1 (stereo not given),8%
Cc1nc2cc(NC(=O)[C@@H]3C[C@@H](Sc4ccccn4)CN3Cc3ccc(F)cc3F)ccc2s1,-12%
CCC1CN(Cc2cn[nH]c2-c2ccccc2)Cc2cc(OC)ccc2O1 (stereo not given),3%
C[C@@H]1CN(Cc2ccc3c(c2)CN(Cc2cccc4cccnc24)CCO3)C[C@H](C)O1,-9%
Cn1cccc1C(=O)N1CCC[C@@]2(CCN(c3ccncc3)C2)C1,20%
COc1cccc(-c2nccc(N(C)Cc3ccco3)n2)c1,?
COc1ccccc1CNc1cc(-c2cccnc2)ncn1,1%
C[n+]1ccc(/C=C/c2ccc3ccccc3c2)cc1,-4%
Cc1ccccc1-c1cc(N(C)C)ncn1,-14%
Cc1ccccc1C(=O)N1CCc2c(cnc(C)c2CNC(=O)c2ccc3c(c2)OCO3)C1,0%
CC(=O)OCC(=O)[C@@]1(O)CCC2C3CC[C@H]4CC(O)CC[C@@]4(C)C3C(=O)C[C@]21C (stereo not given in full),5%
COc1cc(=O)n2c(c1C(=O)NC(C)c1ccco1)CCN(Cc1ccc3nsnc3c1)CC2 (stereo not given),-3%
Cc1nc2cnc(Oc3cccc(Cl)c3)nc2n(CCC#N)c1=O,7%
CCC(=O)NS(=O)(=O)c1ccc(-c2c(-c3ccccc3)noc2C)cc1,?
C=C[C@]1(C)Cc2occ(C)c2C[C@H]1C(=C)C(=O)O,-17%
CC(=O)N[C@H]1[C@H]([C@H](O)[C@H](O)CO)OC(C(=O)O)=C[C@@H]1N=C(N)N,0%

# Entries shown so far containing a cyano group (three):
SMILES,EPAC1 agonist
COc1cc(/C=C(\C#N)C(=O)c2ccc(O)c(O)c2)cc(I)c1O,-6%
N#Cc1cc2[nH]c(=O)c(=O)[nH]c2cc1[N+](=O)[O-],1%
Cc1nc2cnc(Oc3cccc(Cl)c3)nc2n(CCC#N)c1=O,7%

# Other structures:
SMILES,EPAC1 agonist
CC1(c2ccccc2)OC(C(=O)O)=CC1=O (stereo not given),7%
COc1cc(-c2cc(C)c3c(OC)ccc(OC)c3n2)cc2c1OCCN(C(=O)CCn1ccc(C)n1)C2,3%
COc1cc2c(cc1OC)C1C(=O)c3ccc4c(c3OC1CO2)C=CC(C)(C)O4 (stereo not given),?
C#CCN(C)Cc1ccccc1,-5%&5%
O=C(Nc1ccccc1)N1CC[C@@]2(CCCN(C(=O)c3csnn3)C2)C1,-73%[inhibitor]
OC(CN1CCN(c2cccc(Cl)c2)CC1)C(c1ccccc1)c1ccccc1 (stereo not given),-7%&20%&10%
CCc1cc(C(=O)NCC2Cc3cc(C)cc(-c4cc(C(C)=O)ccc4F)c3O2)n(C)n1 (stereo not given),1%
COC1C=CC23c4cc5c(cc4CN(CC2O)C3C1)OCO5 (stereo not given),10%
CS(=O)(=O)N1CCC2(CCCN(Cc3cc(C(F)(F)F)cc(C(F)(F)F)c3)C2)CC1,-112%[inhibitor]
O=C(O)CCc1nc2ccccc2[nH]1,-4%
NC(=O)[C@@H]1CCCN1C(=O)CC1(c2cccc(F)c2)CC(=O)N(C2CCCC2)C1=O (stereo not given in full),-18%
COc1cc(-c2noc(C)c2C#CCO)cc(OC)c1OC,5%
CCOC(=O)COc1ccc2c(C)c(CCN(CC)CC)c(=O)oc2c1,?
Cc1ccnn1CC(=O)N1CCOc2c(cc(-c3ncc(C(F)(F)F)cc3Cl)cc2OCC2CCCO2)C1 (stereo not given),-6%
Cc1nc([N+](=O)[O-])cn1-c1ccc([N+](=O)[O-])cc1,6%
Clc1ccc(N2CCN(Cc3c[nH]c4ncccc34)CC2)cc1,12%&-14%&-5%
CC[C@@H]1CN2CCc3cc(OC)c(OC)cc3[C@@H]2C[C@@H]1C[C@H]1NCCc2cc(OC)c(OC)cc21,1%
Cc1cnc(-n2ncc(C(=O)N(C)CCc3ccccn3)c2-c2cccs2)nc1-c1ccc(F)cc1,-10%
CC[N+](CC)(CC)c1ccc(/C=C/c2ccnc3ccccc23)cc1,-58%[inhibitor]
CCOC(=O)N1CCN(Cc2ccc3c(c2)CN(C(=O)c2cccc(-n4cccn4)c2)CCO3)CC1,0%
Cc1onc(-c2ccccc2)c1C(=O)NC1C(=O)N2C(C(=O)O)C(C)(C)S[C@@H]12 (stereo not given in full),?
O=C(NCC1(N2CCCCC2)CCCCC1)c1ccc(-n2cc(NC(=O)c3cccnc3)cn2)cc1,-11%
COC(=O)c1ccc2nc3c(cc2c1)[C@@H]1CCN2C(=O)CCC[C@H](C3)[C@H]12,-2%
CO[C@H]1C=CO[C@@]2(C)Oc3c(C)c(O)c4c(O)c(c(/C=N/N5CCN(C)CC5)c(O)c4c3C2=O)NC(=O)/C(C)=C\C=C[C@H](C)[C@H](O)[C@@H](C)[C@@H](O)[C@@H](C)[C@H](OC(C)=O)[C@@H]1C,-69%[inhibitor]
Cc1cnc(SCC2CCCO2)nc1C1CCCN(Cc2nc(-c3ccccc3)cs2)C1 (stereo not given),17%
O=C1CCC(c2ccc(-n3ccnc3)cc2)=NN1,2%&3%
CC(C)CC(=O)N1C/C=C\C[C@@H](c2ccc(Cl)cc2)N(Cc2ccc(Cl)cc2)C(=O)[C@@H]1Cc1ccccc1,-44%
O=C(/C=C/c1ccc(O)c(O)c1)OCCc1ccccc1,?
CCC1(C2CCN(Cc3ccccc3Cl)CC2)NC(=O)N(CC2COc3ccccc3O2)C1=O (stereo not given),8%

# Compound activity from PubChem BioAssay.
